# From PubChem BioAssay
# GIV-Gai inh: inhibitors of GIV GBA-motif binding to rat Galpha-i3; percent of control (FP), % (no concentration beside the values); Galpha-i3/FITC-GIV peptide fluorescence polarization, 90 min; stronger effect = lower value; scaled: aluminum fluoride 0%, vehicle 100%; hit rate 0.42% among 210,000; AID 1224905; P08753;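 active means replicate mean at 85% of control or lower, very high polarization wells dropped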;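 further: wells of about 15 µL received 100 nL stock; the first replicate is given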
# Target sequence (P08753 whole entry, looked up): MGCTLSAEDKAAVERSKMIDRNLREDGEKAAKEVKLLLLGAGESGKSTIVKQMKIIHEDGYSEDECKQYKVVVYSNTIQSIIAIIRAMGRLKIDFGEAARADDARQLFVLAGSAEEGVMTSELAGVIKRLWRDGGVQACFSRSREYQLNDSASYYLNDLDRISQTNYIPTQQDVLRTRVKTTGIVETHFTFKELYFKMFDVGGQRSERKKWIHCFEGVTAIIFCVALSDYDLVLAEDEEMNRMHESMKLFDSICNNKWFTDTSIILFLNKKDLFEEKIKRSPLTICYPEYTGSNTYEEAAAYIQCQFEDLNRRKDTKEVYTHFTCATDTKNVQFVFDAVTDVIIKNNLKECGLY
# Sa growth inh: inhibitors of Staphylococcus aureus growth at 42 °C; S. aureus RN4220 growth, OD600, 20 h; stronger effect = lower value; hit rate 0.53% among 170,000; AID 720641; relative growth, % (no concentration beside the values);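 active means growth at 42 °C up to 50% and 20 or more points under that at 30 °C, or under 10% at both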;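 further: 300 nL library stock went into each well; scaled to the means of positive and negative controls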
# HCMV UL50-53 inh: inhibitors of HCMV UL50-UL53 nuclear egress complex interaction | HTRF UL50-UL53 interaction, normalized percent inhibition | inhibition, % (test concentration not listed) | hit rate 0.15% among 190,000;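 active means both replicates at 50% or more, plus weaker picks with an unusually low signal ratio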;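 further: stock transfer was 100 nL into about 20 µL; 0% = negative control wells and 100% = wells with untagged competitor protein; inactives centre near -12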
# Sa growth inh second temp: second read-out of Sa growth inh, no call of its own (marks repeat the call); relative growth, %; measured here: growth at 30 °C;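 optical density after 20 h as mean of two plates; 100% = untreated growth and lower means inhibition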
# Starred values were filed as active, the others as inactive; · = not tested or not shown.
SMILES,GIV-Gai inh,Sa growth inh,Sa growth inh second temp,HCMV UL50-53 inh
CC(C)(CNC(=O)c1oc(=O)c2ccccc2c1-c1ccccc1)N1CCCCC1,108,70,98,-1
COc1ccc(-c2nsc(SCC(N)=O)n2)cc1,100,114,97,·
COc1ccccc1C(=O)Nc1ccc(Nc2cc(N(C)C)nc(C)n2)cc1,100,·,·,-37
CN(C(=O)CCC(=O)O)C1CCCCC1,101,109,102,2
COc1ccc(CCNC(=S)NCCc2ccccc2)cc1OC,98,77,89,-28
O=C(Nc1cccc(C(F)(F)F)c1)c1ccc(-c2ccccc2)cc1,99,98,76,·
Cc1cccc(NC(=O)COc2ccccc2-c2nc(-c3ccccc3)no2)c1,96,·,·,-14
O=C(Nc1ncccc1O)c1ccc(Oc2ccccc2)cc1,·,105,62,0
O=C(COc1cc(O)c2c(=O)c3ccccc3oc2c1)c1ccc(Cl)cc1,96,·,·,-7
CCOc1ccc(/C=N/OC(C)C(=O)NCc2ccc3c(c2)OCO3)cc1 (configuration not stated),·,84,102,-8
COc1ccc(-c2csc(-c3nc(-c4ccc(C)cc4C)cs3)n2)cc1F,99,·,·,-25
COc1ccc2[nH]cc(NC(=O)NCCO)c(=O)c2c1,101,83,80,-41
O=C(COC(=O)Cn1ccc(=O)[nH]c1=O)Nc1ccc(F)cc1,·,74,96,-34
COc1ccccc1CNC(=O)c1cc2c(=O)oc3ccc(C)cc3c2s1,100,116,92,-12
COc1ccc(/C=N/NC(=S)NC(C)C)cc1,·,84,96,-29
N#Cc1c(N)nc(SCC(=O)c2ccc(Br)cc2)c(C#N)c1-c1ccc(O)cc1,97,·,·,9
Cc1cccc(NC(=O)C2CCN(S(=O)(=O)c3ccc4[nH]c5c(c4c3)CCCCC5)CC2)c1,104,125,99,·
O/N=C1\CCOc2ccc3ccccc3c21,99,115,106,0
CCn1c(C(=O)NCc2ccc(C)cc2)cc2sc(Cl)cc21,100,108,90,-27
CC(=O)Nc1nonc1-c1nnc(SCc2ccc(Cl)cc2)n1C,95,101,79,-6
COC(CNC(=O)CN1CCN(Cc2ccccc2)C1=O)OC,102,113,91,·
Cc1cccc2sc(N(Cc3cccnc3)C(=O)CCOc3ccccc3)nc12,102,123,93,·
O=C1OC(N2CCOCC2)c2ccccc21 (configuration not stated),105,88,55,-15
O=C(O)C1CC=CCC1Cc1ccccc1 (configuration not stated),96,126,105,-23
O=C(Nc1cccc2nsnc12)c1ccc2c(c1)OCCO2,99,·,·,-63
O=C(C1c2ccccc2Oc2ccccc21)N1CCN(C(c2ccccc2)c2ccccc2)CC1,94,·,·,-12
CS(=O)(=O)/C(C#N)=C/c1ccsc1/C=C(\C#N)S(C)(=O)=O,103,105,107,-1
CC(C)CC(=O)NCC(c1ccc2c(c1)OCO2)N1CCN(c2ccc(F)cc2)CC1 (configuration not stated),104,112,99,·
O=C(CNCC1CCCCC1)Nc1ccccc1N1CCCCC1,103,103,101,-3
CC(=O)N(c1ccccc1)c1nc(COC(=O)c2cnc(C)cn2)cs1,·,72,91,-20
O=C(COc1ccc(F)cc1)Nc1nc(-c2ccccc2)ns1,106,·,·,-3
CC(=O)Nc1cc(NC(C)=O)c2nc(N)sc2c1,104,110,92,·
CCN(CC)CCNC(=O)c1nn(C)c2c1CS(=O)(=O)c1ccccc1-2,104,116,84,-16
Cc1cccc(Nc2nnc(SCC(=O)Nc3sccc3C#N)s2)c1C,·,100,83,-20
Cc1ccc(C)c(OCc2nnc(SCN3C(=O)c4ccccc4C3=O)o2)c1,·,84,89,-29
CCOc1ccccc1NC(=O)NCCCn1c(-c2ccncc2)nc2cccnc21,107,·,·,6
COC(=O)c1ccc(OCC2c3cc(OC)c(OC)cc3CCN2C(=O)c2cccc(C)c2)cc1 (configuration not stated),100,73,65,·
COc1ccccc1NC(=O)C12CC3CC(CC(C3)C1)C2,98,114,77,·
O=c1cc(COc2cccc(C(F)(F)F)c2)nc2sc3c(n12)CCCC3,103,111,91,-34
COc1ccc(CCNC(=O)CSc2nnc3sc4ccccc4n23)cc1,101,101,87,-9
CN1C(=O)c2ccccc2C(C(=O)NCCN(Cc2ccco2)C2CCCC2)C1c1cccs1 (configuration not stated),103,84,90,-2
CCc1ccccc1NC(=O)c1cc(-c2ccc(OC)cc2)on1,102,92,95,1
O=c1c2c3nc4ccccc4nc3n(Cc3ccco3)c2ncn1Cc1ccco1,107,98,83,-33
CC(C)c1nc2sc3c(N4CCCCC4)ncnc3c2c2c1CCCC2,100,95,89,-9
O=c1ncn(-c2ccccc2)[nH]1,115,·,·,-12
Cc1nn(-c2ccc(Cl)cc2)c(N)c1C1(O)C(=O)Nc2ccc(F)cc21 (configuration not stated),·,103,97,-2
CCOc1cc(CNc2ccc(O)cc2)ccc1OCc1ccc(Cl)cc1,76*,90,78,14
CCCCOc1ccc(C(=O)NCc2cn3cccc(C)c3n2)cc1,98,113,90,-12
CCCC12CN3CC(C)(CN(C1)C3c1c(C)n(C)c3ccccc13)C2=O (configuration not stated),105,90,84,-15
O=C(OCC(=O)N1N=C2/C(=C/c3ccco3)CCCC2C1c1ccco1)c1ccccn1 (configuration not stated),·,106,93,-24
Cc1cc(SCC(=O)Nc2nc(-c3ccccc3)cs2)nc(C)n1,101,·,·,-22
Cc1cccc(OCc2ccc(-c3nc(C#N)c(NCc4cccnc4)o3)o2)c1,99,93,63,7
COC(=O)CCc1n[nH]c(=O)[nH]c1=O,101,93,97,-7
CCOc1cc(CNc2ccc(C(=O)O)cc2)ccc1OCc1ccccc1,96,94,87,-12
O=[N+]([O-])c1c(Nc2ccc(Cl)cc2)cc(N2CCCCC2)c2nonc12,107,·,·,-8
O=C(NCCc1ccc(F)cc1)C(=O)NCC(c1cccs1)S(=O)(=O)c1ccc(F)cc1 (configuration not stated),95,101,90,·
Cn1cc(S(=O)(=O)N2CCCCCC2)cc1C(=O)N1CCN(c2ccccc2F)CC1,103,101,92,·
O=C(O)c1ccc(OCCN2CCCC2=O)cc1,101,67,90,-6
CC(NC(=O)COc1ccccc1C(C)(C)C)c1ccccc1 (configuration not stated),106,94,92,·
COc1cccc(CNC(=O)C(C)n2ccc3cc(S(=O)(=O)N4CCCCCC4)ccc32)c1 (configuration not stated),103,102,88,·
# (list continues)
SMILES,GIV-Gai inh,Sa growth inh,Sa growth inh second temp,HCMV UL50-53 inh
COc1ccccc1NC(=O)CCn1c(=O)oc2cc(Cl)ccc21,97,113,90,·
Cc1ccc(Nc2c(-c3ccccc3)c(=O)c2=O)cc1F,107,·,·,-33
CCOC(=O)c1[nH]c(=O)[nH]c1CSC(=N)N,101,99,89,-13
CC(C(=O)Nc1ccccc1C(=O)N1CCCC1)n1nnc2ccccc21 (configuration not stated),109,112,81,0
NNC(=O)C1CCCNC1=O (configuration not stated),106,83,86,-2
COC(=O)C1C(=O)/C(=C/N(C)C)C(=O)CC1(C)C (configuration not stated),107,93,80,1
NC(=O)CSc1nnc(-c2cc3ccccc3[nH]2)o1,104,·,·,-26
O=c1oc2ccccc2cc1-c1nc(-c2cccc(Cl)c2)cs1,105,97,89,·
C/C(=N\NC(=O)COc1ccccc1)C1C(=O)c2ccccc2C1=O,105,65,46,-80
Cc1ccc(Nc2cc(C)nc3nc(Cc4ccc(Cl)cc4)nn23)cc1,98,89,81,-33
O=C(c1ccccc1Br)N1CCC(c2nc(-c3ccc(Cl)cc3)no2)CC1,101,·,·,-4
C=CCSc1nc(O)c(CC(C)C)c(=O)[nH]1,104,123,98,-19
O=c1cc(-c2ccccc2)n2c(SCc3ccc(Br)cc3)nnc2[nH]1,102,103,98,·
O=C(O)CC12CC3CC(C1)CC(CC(=O)O)(C3)C2,100,111,95,·
Cc1ccc2[nH]c3c(c2c1)CCCC3C(=O)O (configuration not stated),106,112,116,-20
O=C(c1csc2c1CCCC2)N1CCN(S(=O)(=O)c2cccs2)CC1,·,188,90,-12
COc1ccc2[nH]c3c(c2c1)CCN1C[C@H]2C[C@@H](OC(=O)c4cc(OC)c(OC)c(OC)c4)[C@H](OC)[C@@H](OC(C)=O)[C@H]2C[C@H]31,103,·,·,-14
CCOc1ccc(-c2nc3s/c(=C\C4=Cc5ccccc5OC4)c(=O)n3n2)cc1,124,103,100,·
COc1ccc(C(=O)Nc2cccc(OCc3cc(=O)n4c5c(sc4n3)CCCC5)c2)cc1OC,112,104,90,-9
NS(=O)(=O)c1ccc(CNC(=O)/C=C/c2ccccc2)cc1,99,118,99,-24
Cc1cc(C)c(-c2ccn[nH]2)[nH]1,112,79,54,7
CS(=O)(=O)NC(C(=O)O)c1ccccc1 (configuration not stated),107,112,98,-7
CCOC(=O)Cc1cc(=O)oc2cc(OCC)ccc12,·,99,93,-4
CCN(CC)C(=O)c1ccc2c(c1)N(Cc1ccc(C(F)(F)F)cc1)C(=O)c1ccccc1S2,101,75,53,7
Cc1cc(NC(=O)N(C)C)nn1-c1ccccc1,103,105,84,-36
Cc1cc2nnc(SCC(=O)c3ccc4c(c3)OCO4)n2c2ccccc12,103,·,·,-6
Cc1cc(O)cc(O)c1C(=O)Cc1cscn1,100,93,80,-19
Cc1cc(C)c(/C=C/c2onc(C)c2S(=O)(=O)N2CCC(C(=O)NCC(C)c3ccccc3)CC2)c(C)c1 (configuration not stated),109,111,97,·
COc1ccc(CNC(=O)c2ccc3cnn(Cc4ccc(Cl)cc4)c3c2)c(OC)c1,105,·,·,-29
O=c1c(NCc2ccc(Cl)cc2)nccn1-c1ccc2c(c1)OCO2,101,·,·,-17
Cc1ccc(C)c(N2CCN(C(=O)CN3C(=O)CCn4nc(-c5cn(C)c6ccccc56)cc43)CC2)c1,106,·,·,-11
Cn1cc(S(=O)(=O)c2ccccc2)c(=O)c2cc(F)c(N3CCC(Cc4ccccc4)CC3)cc21,105,·,·,2
Oc1ccc2n[nH]nc2c1,106,104,96,1
CC(=O)N1CCN(C(=S)NC2CC3CCC2C3)CC1 (configuration not stated),·,104,89,-14
CN1/C(=C\C=N\NC(=O)Cn2cncn2)C(C)(C)c2ccccc21,·,72,82,-42
O=C(NCc1ccccc1)C1CCN(Cc2cnn(-c3ccccc3)c2-n2cccc2)CC1,101,89,81,·

# Three entries picked at random from those above, as already listed:
SMILES,GIV-Gai inh,Sa growth inh,Sa growth inh second temp,HCMV UL50-53 inh
Cc1cc(C)c(/C=C/c2onc(C)c2S(=O)(=O)N2CCC(C(=O)NCC(C)c3ccccc3)CC2)c(C)c1 (configuration not stated),109,111,97,·
Cc1cc2nnc(SCC(=O)c3ccc4c(c3)OCO4)n2c2ccccc12,103,·,·,-6
CC(=O)N1CCN(C(=S)NC2CC3CCC2C3)CC1 (configuration not stated),·,104,89,-14

# (listing goes on)
SMILES,GIV-Gai inh,Sa growth inh,Sa growth inh second temp,HCMV UL50-53 inh
CSc1cc(/C=N/O)c(SC)s1,98,106,95,-14
Cc1c(C(=O)NN=C2CCCCCC2)nnn1-c1nonc1N,109,118,75,12
COc1cccc(OCC(O)Cn2c(Cc3ccccc3)nc3ccccc32)c1 (configuration not stated),99,78,49,-9
CCCn1c(SCc2nc(N)nc(Nc3ccccc3CC)n2)n[nH]c1=O,·,100,92,8
Cc1nnc(SCC(=O)NC2CCCCC2)o1,101,100,87,-20
O=C1CSc2ccc(C(=O)N3CCc4ccccc43)cc2N1,·,115,100,-3
Cc1cc2c(cc1C)NC(=O)CC(c1ccccc1)=N2,100,·,·,-43
COc1cccc(-c2nn3c(CSc4ccccc4)nnc3s2)c1,112,·,·,0
NC(=O)c1cc(S(=O)(=O)N2CCCC2)cs1,100,78,90,-34
CC(OC(=O)C(c1ccccc1)c1ccccc1)C(=O)N1CCN(C(=O)c2ccco2)CC1 (configuration not stated),·,95,106,2
Cn1c(=O)[nH]c(=O)c2c(-c3ccccc3)ccnc21,96,·,·,-5
COc1ccc(Cl)cc1-n1c(CCC(=O)O)ccc1-c1ccc(C)cc1,105,59,11,-2
CCN(CC)S(=O)(=O)c1ccc2c(c1)N(CC(=O)Nc1ccc(C)c(Cl)c1)C(=O)CCS2,96,·,·,4
CC(C)N1C(=O)S/C(=C/c2cc(Br)c(OCC(=O)O)c(Br)c2)C1=O,97,103,67,·
O=C(NCc1ccc2c(c1)CCO2)c1cc(F)cc2c1OCOC2,107,99,86,-16
CC1=C(C(=O)Nc2ccc(C)cc2)C(c2ccccc2Cl)n2nnnc2N1 (configuration not stated),100,104,105,36
CS(=O)(=O)N1CCC2(CC1)OCCN2S(=O)(=O)c1ccccc1,102,91,92,-12
O=S1(=O)CC2SC(=S)N(CC3CCCO3)C2C1 (configuration not stated),·,79,85,-6
COc1ccc(CCNS(=O)(=O)c2c(C)nc3sc(C)cn3c2=O)cc1OC,108,96,78,·
Cc1ccc(C)n1CCC(=O)O,71*,118,109,-1

# Taken from the entries so far, six compounds:
SMILES,GIV-Gai inh,Sa growth inh,Sa growth inh second temp,HCMV UL50-53 inh
CCN(CC)S(=O)(=O)c1ccc2c(c1)N(CC(=O)Nc1ccc(C)c(Cl)c1)C(=O)CCS2,96,·,·,4
CC(C)N1C(=O)S/C(=C/c2cc(Br)c(OCC(=O)O)c(Br)c2)C1=O,97,103,67,·
O=C(NCc1ccc2c(c1)CCO2)c1cc(F)cc2c1OCOC2,107,99,86,-16
CC1=C(C(=O)Nc2ccc(C)cc2)C(c2ccccc2Cl)n2nnnc2N1 (configuration not stated),100,104,105,36
CS(=O)(=O)N1CCC2(CC1)OCCN2S(=O)(=O)c1ccccc1,102,91,92,-12
O=S1(=O)CC2SC(=S)N(CC3CCCO3)C2C1 (configuration not stated),·,79,85,-6
